# HPGD inh: blocks human HPGD enzyme activity; purified HPGD, NADH fluorescence kinetic, PGE2 substrate; hit rate 4.3% among 150,000; Potency, µM, inactives show top-dose activity change, negative = inhibition, usual class: inhibitors; AID 894; active = well fitted inhibition curve with a large enough effect (not every such curve was filed as active); inconclusive = small, poorly fitted or top-dose-only effect, or another doubt; inactive = no such curve, though single readings can be large or run the other way;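 further: top concentration of the series not given in the record; plate controls included wells without enzyme; inactives centre near -10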
# Target sequence (P15428 whole entry, looked up): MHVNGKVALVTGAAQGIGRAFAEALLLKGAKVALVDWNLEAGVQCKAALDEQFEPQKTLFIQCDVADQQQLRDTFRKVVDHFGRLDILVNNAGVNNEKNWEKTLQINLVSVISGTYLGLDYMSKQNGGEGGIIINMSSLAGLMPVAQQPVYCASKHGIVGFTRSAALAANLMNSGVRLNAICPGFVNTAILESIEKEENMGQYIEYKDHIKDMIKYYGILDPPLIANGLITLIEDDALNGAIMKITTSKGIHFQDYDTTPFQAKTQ
#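 NADH formation kinetics: reaction with 30 uM PGE2 and 1 mM NAD+ (final), 20 nM enzyme, Tris-HCl pH 8 with Tween 20, after 15 min compound preincubation at room temperature. Fluorescence change, last versus first of five reads.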
# An asterisk follows results filed as active; ? = inconclusive; & = joins results of further samples. On the % scale 0 is the no-effect control and ±100 the full control effect; potency means the concentration at half of the fitted maximal effect. This is a subset; rates above refer to the full screens.
SMILES,HPGD inh
N#Cc1ccccc1NC(=O)COC(=O)CCc1ccc(S(=O)(=O)N2CCCCC2)cc1,-13%
CCN(CC)CCCNC(=O)c1[nH]c(C)c(C(=O)NC2CCCCC2)c1C,1%
COc1ccc(-n2c(C)cc(/C=C3\C(=O)NN(c4ccccc4)C3=O)c2C)cc1,-10%
CC(=O)c1c(C)[nH]c(C(=O)Nc2ccc(C)c(C)c2)c1C,-19%
CC1CCN(S(=O)(=O)c2ccc(NC(=O)Cn3nnc(-c4ccccc4)n3)cc2)CC1,-3%
Cn1cccc1Cc1nnc(SCC(N)=O)n1-c1ccc(F)cc1,-13%
CCc1ccccc1N/C(=N\S(=O)(=O)c1ccccc1)C(F)(F)F,-5%
CN1CCN(S(=O)(=O)c2ccc(Sc3nc4ccccc4[nH]3)c3nsnc23)CC1,-2%
Cc1ccc(NC(=O)CS(=O)CC(=O)Nc2ccc3c(c2)OCO3)cc1Cl (centres undefined),-5%
OC[C@H]1O[C@@H]2O[C@H]3[C@H](O)[C@@H](O)[C@@H](O[C@H]4[C@H](O)[C@@H](O)[C@@H](O[C@H]5[C@H](O)[C@@H](O)[C@@H](O[C@H]6[C@H](O)[C@@H](O)[C@@H](O[C@H]7[C@H](O)[C@@H](O)[C@@H](O[C@H]1[C@H](O)[C@H]2O)O[C@@H]7CO)O[C@@H]6CO)O[C@@H]5CO)O[C@@H]4CO)O[C@@H]3CO,3%
CC(=O)Oc1ccc(C(c2ccc(OC(C)=O)cc2)c2ccccn2)cc1,-4%&-13%&-1%&-10%
CCOC(=O)C1C(=O)C=C(c2cccc(NS(C)(=O)=O)c2)CC1c1ccco1 (centres undefined),-22%
C=CCn1c(COc2ccc(CC)cc2)nnc1SCC(=O)N(C)C1CCS(=O)(=O)C1 (centres undefined),-8%
COc1ccc(Oc2ncnc3c2oc2ccc(Br)cc23)cc1,-18%
Cc1c(-c2ccccc2)[nH]n2c(=O)c3c(nc12)CCCC3,-20%
COc1ccc(CNC(=O)CNS(=O)(=O)c2ccc(Cl)cc2)cc1,-12%
O=S(=O)(c1ccc(F)cc1)N1CCC(N2CCCC2)CC1,-7%
Cc1cccc(N2CCN(S(=O)(=O)c3cccc4nonc34)CC2)c1C,-14%
CCOC(=O)c1cnn(CCOC(=O)c2ccc(F)cc2)c1NC(=O)c1ccc(F)cc1,-5%
COC(=O)CNC(=O)C1CCCN1C(=O)CNC(=O)OC(C)(C)C (centres undefined),-3%
CC(C)NC(=O)C1CCCN(S(=O)(=O)c2cccs2)C1 (centres undefined),-13%
O=C1CC(N2CCN(c3ccc(O)cc3)CC2)C(=O)N1Cc1cccs1 (centres undefined),-1%
Cc1ccsc1-c1nc(CSCC(=O)NCCN2CCCC2)c(C)o1,?
COc1ccc(N2CCN(C(c3ccccc3OC)c3nnnn3Cc3ccco3)CC2)cc1 (centres undefined),-14%
S=c1nccc(-c2cc(Cl)sc2Cl)[nH]1,-25%
COC(=O)[C@@H]1C[C@@H]2CC[C@@H](O)C[C@@H]2N1Cc1ccc(C)s1,-8%
Cc1noc2ncnc(Oc3ccc4ccccc4c3)c12,-3%
CCCNc1nc2c(c(=O)n(C)c(=O)n2C)n1Cc1ccc(F)cc1,-11%
COCCOC(=O)C1=C(C)Nc2cc(=O)[nH]c(=O)n2C1c1cccc([N+](=O)[O-])c1 (centres undefined),0%
Cc1c(C(=O)NCc2ccc3c(c2)OCO3)oc2ccc(S(=O)(=O)N3CCCC3)cc12,?
Cc1nc2c(c(C)nn2-c2ccccc2)c(C)c1Cl,?
COC(=O)c1ccc(OCC(O)CN(CCO)CCO)cc1 (centres undefined),0%
O=[N+]([O-])c1ccc(N2CCCC2)cc1N1CCCC1,-15%
COc1ccccc1-c1cc(NCc2cccnc2)ncn1,-28%
Cc1cc(C)nc(N2CCC(C(=O)Nc3ccc(Oc4ccccc4)cc3)CC2)n1,1%
CCCCOc1ccccc1NC(=O)c1ccc(=O)[nH]c1,-7%
CCC(Cc1ccccc1)NC(=O)CN(C)S(=O)(=O)c1ccc2c(c1)c(=O)n(C)c(=O)n2C (centres undefined),-3%
O=C1C(c2ccc(F)cc2)N(CC2COc3ccccc3O2)C(=O)CN1C1CCCCC1 (centres undefined),-15%
COCCn1c(SC(C)C(=O)Nc2ccc3c(c2)OCCO3)nc2ccccc2c1=O (centres undefined),?
CCn1c2ccccc2c2cc(NC(=O)N3CCOCC3)ccc21,?
Cc1ccc2c(c1)N(Cc1ccncc1)C(=O)C(C)O2 (centres undefined),-13%
COc1ccc(C(=O)NCCn2ccc3ccccc32)cc1OC,-6%
CCOc1ccc(/C=C/C(=O)Nc2ccc3[nH]c(=O)[nH]c3c2)cc1,-6%
OCCN1CCN(c2nc(N3CCCCC3)nc(N3CCCCC3)n2)CC1,-8%
CCCn1nnc(NC(=O)COc2ccc(Cl)cc2)n1,2%
COC(=O)/C(=C\c1ccc([N+](=O)[O-])o1)NC(=O)c1ccccc1,-9%
CCOC(=O)c1c(NC(=O)Cn2nc([N+](=O)[O-])c(Br)c2C)sc2c1CCC(C)C2 (centres undefined),-9%
CC1(OC(=O)C2CCCC2)C(=O)C=C2C=C(C3CC3)OC=C2C1=O (centres undefined),-2%
COCCNC(=O)/C(C#N)=C/c1c(N2CC(C)OC(C)C2)nc2ccccn2c1=O (centres undefined),-29%
Cc1nnc(NC(=O)NCN2C(=O)C3C4C=CC(C4)C3C2=O)s1 (centres undefined),-1%
Clc1ccc(-c2nnc3c4ccccc4nc(N4CCOCC4)n23)cc1Cl,-12%
COc1ccc(C(=O)N2CCC3(CCN(C(=O)Nc4ccccc4)CC3)CC2)cc1,-10%
Nc1cc(=O)[nH]c(SCC(=O)Nc2cc(Cl)cc(Cl)c2)n1,-20%
Cc1ccc(-n2c(CNc3ccc(F)cc3)nnc2SCC(=O)NCc2ccco2)cc1,-7%
COc1ccccc1NC(=O)c1cc(C(=O)Nc2ccccc2OC)cc(N2C(=O)CCC2=O)c1,-10%
Cc1ccccc1N(CC(=O)NCc1ccc2c(c1)OCO2)C(=O)CCC(=O)Nc1ccccn1,-5%
COc1ccccc1-c1nnc(SCC(=O)Nc2cc(C)on2)o1,-7%
O=C1NC(=O)c2cc(NC(=O)C3CCCCC3)ccc21,?
Cn1c(=O)n(Cc2ccccc2F)c(=O)c2c1nc1n2CCCN1CCc1ccccc1,0%
COc1ccc(N(CC(=O)NCc2cccnc2)S(=O)(=O)c2c(C)nn(C)c2C)cc1,-12%
# The results go on:
SMILES,HPGD inh
CN(C(=O)CSc1nc2ccccc2n1CCc1ccccc1)C1CCS(=O)(=O)C1 (centres undefined),-14%
CCOC(=O)N1CCC(N2C(=O)c3ccccc3C2Nc2ccccc2C)CC1 (centres undefined),-3%
COc1ccc(CCC(C(O)C(F)(F)F)S(=O)c2ccccc2)cc1 (centres undefined),-23%
N#Cc1c(-c2ccccc2)nc(SCC(=O)N(c2ccccc2)c2ccccc2)[nH]c1=O,28µM*
Cc1cc(C)c(C)c(OCCCOc2cccc3cccnc23)c1,?
COc1cc2[nH]c(=O)n(CCCCCC(=O)NCCc3c[nH]c4ccccc34)c(=O)c2cc1OC,0%
Cc1ccc(C2C(/C=C3/SC(=S)NC3=O)=C(c3cccs3)Oc3ccccc32)cc1 (centres undefined),-16%
N#Cc1c(N)nc2c3c(sc(=N)c2c1N)NC(=O)CC3c1c(F)cccc1Cl (centres undefined),?
O=S(=O)(c1ccccc1)N1CCC2(CCN(Cc3nccs3)CC2)CC1,-12%
COc1ccc2nc(NC(=O)C3COc4ccccc4O3)sc2c1 (centres undefined),-21%
Cc1ccc2[nH]c(C)cc(=O)c2c1,-23%
COCCn1c(C)cc(C(=O)COC(=O)C23CC4CC(CC(O)(C4)C2)C3)c1C,-7%
COC(=O)C1CCN(C(=O)COC(=O)CC(NC(N)=O)c2ccc(Cl)cc2)CC1 (centres undefined),-3%
COC(=O)C1C(O)=C(C=NCC(C)N=CC2=C(O)C(C(=O)OC)C(C)(C)CC2=O)C(=O)CC1(C)C (centres undefined),-14%
N#CC(c1ccc(Cl)cc1)(c1ncc(C(F)(F)F)cc1Cl)N1CCOCC1 (centres undefined),-8%
COC(=O)C1=CN(C)C=C(C(=O)OC)C1c1ccsc1,?
COc1ccc(-n2nnnc2-c2cccnc2)cc1,-3%
Cc1ccccc1NC(=O)OCCN1CCN(Cc2ccccc2)CCC1=O,2%&-4%
O=C(Nc1nc(-c2ccc(S(=O)(=O)N3CCCC3)cc2)cs1)c1cccs1,?
Cc1ccc(C(=O)/C=C\C(=O)c2ccc(C)cc2)cc1,2.2µM*
COc1ccc(C(=O)N/N=C/c2ccc(OC(=O)c3cccs3)cc2)cc1,-2%
CC1CCCC/C1=N\NS(=O)(=O)c1ccc(Br)cc1 (centres undefined),1%
CC(CCc1ccccc1)NC(=O)c1cc2sccc2n1C (centres undefined),-9%
CCn1nc(-c2ccccc2)c2nc3ccccc3nc21,-26%
CCOC(=O)N1CCC(N2Cc3cccc(C(=O)NCc4ccccn4)c3C2=O)CC1,-4%
O=C(Nc1ccc(F)cc1)Nc1nnc(-c2ccncc2)s1,-7%
CCN(CC(=O)NCc1ccc(F)cc1)C(=O)C1CCN(C(=O)Nc2ccccc2)CC1,-6%
Cc1ccc(S(=O)(=O)N(C(=O)c2ccncc2)c2ccc(OC(=O)c3ccncc3)c3ccccc23)cc1,20µM*
O=C(Nc1ccc2c(c1)OCO2)c1cnn2cccnc12,-8%
Cc1ccc(C(=O)NN2C(=O)CSC2=S)cc1,-12%
Nc1cc2sc(-c3ccc(C(=O)O)cc3)nc2cc1Cl,?
CS(=O)(=O)Nc1ccc(C(=O)NCCc2ccccc2)cc1,-21%
COc1ccccc1OCC(=O)NNC(=O)c1ccoc1C,-13%
COc1ccccc1/C=C(/CC(=O)NCc1ccc(F)cc1)c1nc2ccccc2s1,-20%
CCN(CC)c1ccc(CN2CCCCCC2)cc1,-14%
O=c1c(O)cc(C2Oc3cc(O)cc(O)c3CC2O)cc2c(C3Oc4cc(O)cc(O)c4CC3O)cc(O)c(O)c12 (centres undefined),13µM*
CC(C)(C)NC(=O)C1CCN(C(=O)c2ccc(-c3ccccc3)cc2)CC1,-13%
O=C(NN1C(=O)c2ccccc2NC1c1ccccn1)c1ccccc1 (centres undefined),?
CC(Sc1nnc(C(F)(F)F)n1C)C(=O)NC(N)=O (centres undefined),3%
COc1cccc(C2CC(C(F)(F)F)n3ncc(C(=O)NC(C)(C)C)c3N2)c1 (centres undefined),-14%
CCOc1ccccc1NC(=O)CN1C(=O)COc2ccc(Cl)cc21,0%
COCC(=O)Nc1ccccc1Br,-14%
Cn1nnc(NC(=O)c2ccc3ccccc3c2)n1,-11%
CCC(C)(C)NC(=O)c1cc([N+](=O)[O-])ccc1N1CCCCC1,-9%
Cc1cc(SCC(=O)c2cccs2)nc2c(C)cccc12,-23%
CCN(CC)S(=O)(=O)c1ccc(N/N=C/c2cc(OC)c(OC)cc2OC)nc1,?
COc1ccc(S(=O)(=O)Nc2cccc(SC)c2)cc1OC,5%
COc1nc(OCC#N)nc(N(C)C)n1,-1%
CCN(CC)C(=O)C1CC(=O)N(c2ccc(F)c(Cl)c2)C1 (centres undefined),-4%
CC1Cc2ccccc2N1Cc1nc2cc(C(F)(F)F)ccc2c(=O)[nH]1 (centres undefined),-21%
COc1ccc(OCCNC2CCCC2)cc1,-8%
CCCn1c(=O)c2c(C(=O)OCC)cc(-c3ccco3)nc2n(CCC)c1=O,?
CCC1CCCCN1S(=O)(=O)c1ccc(NC(=O)CSc2ncccc2C(=O)O)cc1 (centres undefined),14µM*
CCOc1ccc(NS(=O)(=O)c2ccc(NS(=O)(=O)c3ccc(SC)cc3)cc2)cc1,-8%
O=S(Cc1cc(Oc2ccccc2)nc(-c2ccccc2)n1)c1ccccc1 (centres undefined),-11%
Cn1c(NC(=O)/C=C/c2ccco2)cc(=O)n(C)c1=O,-7%

# An excerpt of these results, as tab-separated lines:
SMILES	HPGD inh
COc1ccccc1/C=C(/CC(=O)NCc1ccc(F)cc1)c1nc2ccccc2s1	-20%
CCN(CC)c1ccc(CN2CCCCCC2)cc1	-14%
O=c1c(O)cc(C2Oc3cc(O)cc(O)c3CC2O)cc2c(C3Oc4cc(O)cc(O)c4CC3O)cc(O)c(O)c12 (centres undefined)	13µM*
CC(C)(C)NC(=O)C1CCN(C(=O)c2ccc(-c3ccccc3)cc2)CC1	-13%
O=C(NN1C(=O)c2ccccc2NC1c1ccccn1)c1ccccc1 (centres undefined)	?
CC(Sc1nnc(C(F)(F)F)n1C)C(=O)NC(N)=O (centres undefined)	3%
COc1cccc(C2CC(C(F)(F)F)n3ncc(C(=O)NC(C)(C)C)c3N2)c1 (centres undefined)	-14%
CCOc1ccccc1NC(=O)CN1C(=O)COc2ccc(Cl)cc21	0%
COCC(=O)Nc1ccccc1Br	-14%
Cn1nnc(NC(=O)c2ccc3ccccc3c2)n1	-11%
CCC(C)(C)NC(=O)c1cc([N+](=O)[O-])ccc1N1CCCCC1	-9%
Cc1cc(SCC(=O)c2cccs2)nc2c(C)cccc12	-23%
CCN(CC)S(=O)(=O)c1ccc(N/N=C/c2cc(OC)c(OC)cc2OC)nc1	?
COc1ccc(S(=O)(=O)Nc2cccc(SC)c2)cc1OC	5%
COc1nc(OCC#N)nc(N(C)C)n1	-1%
CCN(CC)C(=O)C1CC(=O)N(c2ccc(F)c(Cl)c2)C1 (centres undefined)	-4%
CC1Cc2ccccc2N1Cc1nc2cc(C(F)(F)F)ccc2c(=O)[nH]1 (centres undefined)	-21%
COc1ccc(OCCNC2CCCC2)cc1	-8%
CCCn1c(=O)c2c(C(=O)OCC)cc(-c3ccco3)nc2n(CCC)c1=O	?
CCC1CCCCN1S(=O)(=O)c1ccc(NC(=O)CSc2ncccc2C(=O)O)cc1 (centres undefined)	14µM*

# Bioassay records: PubChem, National Center for Advancing Translational Sciences (NCATS)
